Source: PubChem (National Center for Advancing Translational Sciences (NCATS))
Prx2 Sm inh: Schistosoma mansoni Prx2 inhibition; Potency, µM; S. mansoni Prx2 activity coupled to TGR/GSH (TGR is thioredoxin glutathione reductase), NADPH fluorescence loss, qHTS; some inactives read as strong as hits; actives 0.07% (n = 65,000); AID 448; active means full or partial inhibition curve with a strong effect at the top dose; inconclusive means weaker partial or single-point curve; inactive means no accepted curve; note: series up to 57 µM; many of its hits are not listed in these tables
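Prx2 activity was followed as the loss of NADPH fluorescence (ex 365/em 450 nm), read every 30 sec for 8 min after H2O2 start. The enzyme mix (50 nM Prx2, 25 nM TGR, GSH, NADPH; pH 7.4 phosphate buffer) was incubated with compound for 15 min at room temperature first.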
LT uptake inh: inhibitors of anthrax lethal toxin internalization. Potency, µM (top dose mostly 40 µM), without a hit: at the highest dose activity change, negative = inhibition, usual class: inhibitors. actives 0.67% (n = 70,000). Cells, anthrax lethal toxin internalization, FRET ratio (460/530); active = well fitted falling ratio curve with the 530 nm signal flat; inconclusive = other ratio curves, or a change in one channel alone; inactive = flat curves in the ratio and both channels; the % refers to the ratio; note: % is set by controls: 0 for no effect and ±100 for the full control effect; nearly all actives have a fitted effect of over 50% in size; tested in ME-180 cells; beta-lactamase reporter
The depositor's hits bear a star; ! = a repeat was not active; [ ] = another dose, or the depositor's remark. Potency is the fitted concentration of half-maximal effect. The list is partial; the hit share may differ from the screen's.

`COC(=O)c1cc(Br)c(=O)n(Cc2ccc(OC)c(OC)c2)c1` gave Prx2 Sm inh >57 and LT uptake inh 3%.
`O=C1CC(c2ccccc2)C(C(=O)Nc2ccccc2F)N1` (centres undefined) gave Prx2 Sm inh >57 and LT uptake inh -2%.
Screening O=C(C1CCN(C2CC(=O)N(c3ccc(F)cc3)C2=O)CC1)N1CCOCC1 (centres undefined) returned Prx2 Sm inh >57 and LT uptake inh -8%.
`CCN(c1cccc(C)c1)c1ncnc2nc[nH]c12` gave Prx2 Sm inh >57 and LT uptake inh 16%.
Cc1nc2ccccn2c1C(=O)NCc1ccc2c(c1)OCO2 was read as Prx2 Sm inh >57 and LT uptake inh -12%.
`COc1ccc(C(=O)Nc2cccc(C(=O)N3CCCC3)c2)cc1` gave Prx2 Sm inh >57 and LT uptake inh 15%.
Screening c1ccc(Cc2nn3c(Cn4cnc5ccccc54)nnc3s2)cc1 returned Prx2 Sm inh >57 and LT uptake inh -22%.
Screening CN(C)c1ccc(C(c2nnnn2C(C)(C)C)N2CCc3ccccc3C2)cc1 (centres undefined) returned Prx2 Sm inh >57 and LT uptake inh -7%.
COc1ccc(N(CC(=O)NC2CCCC2)C(=O)Cn2nnc(-c3ccc(C)cc3)n2)cc1OC was read as Prx2 Sm inh >57 and LT uptake inh -8%.
Screening CCOC(=O)c1cc2sccc2n1Cc1ccccc1 returned Prx2 Sm inh >57 and LT uptake inh inconclusive.
For CC(C)(/C=N/O)/[N+]([O-])=C/c1ccco1 the results were Prx2 Sm inh >57 and LT uptake inh 7%.
For Cc1nc(NCCc2cnc[nH]2)c2oc3ccccc3c2n1 the results were Prx2 Sm inh >57 and LT uptake inh -15%.
COc1cc(Cn2c(-c3nonc3N)nc3ccccc32)ccc1C was read as Prx2 Sm inh >57 and LT uptake inh inconclusive.
Screening COCCn1c(-c2ccccc2F)n[nH]c1=S returned Prx2 Sm inh >57 and LT uptake inh 16%.
`Cc1ccc2oc3c(c(=O)c2c1)C(c1cccc(O)c1)N(c1ccccn1)C3=O` (centres undefined) gave Prx2 Sm inh >57 and LT uptake inh -26%.
`CCOc1ccc(-c2nn[nH]n2)cc1` gave Prx2 Sm inh >57 and LT uptake inh -5%.
For COc1ccc(NC(=O)c2cnn3c(C(F)(F)F)cc(-c4ccco4)nc23)cc1OC the results were Prx2 Sm inh >57 and LT uptake inh 7%.
For COc1ccc(N=c2scc(-c3ccc(S(=O)(=O)N4CCOCC4)cc3)n2CCCO)cc1 the results were Prx2 Sm inh >57 and LT uptake inh -6%.
For c1ccc(Nc2nc(-c3cccnc3)cs2)nc1 the results were Prx2 Sm inh >57 and LT uptake inh 5%.
Screening Cc1cccc(OCCCC(=O)Nc2ccc(S(=O)(=O)Nc3onc(C)c3C)cc2)c1C returned Prx2 Sm inh >57 and LT uptake inh -19%.
CCCCCCC/C=C/C1=CC2(C)CC1(C)C(CCCCCCC)CC2=O (centres undefined) was read as LT uptake inh -11%[8 µM].
`O=C1Nc2ccc(S(=O)(=O)N3CCOCC3)c3cccc1c23` gave Prx2 Sm inh >57 and LT uptake inh 17%.
Cc1ccc(NC(=O)CCCC(=O)O)c(Br)c1 was read as Prx2 Sm inh >57 and LT uptake inh 2%.
`Cc1cc(C)n2nc(CC(=O)NC3CCCCCC3)nc2n1` gave Prx2 Sm inh >57 and LT uptake inh inconclusive.
Screening COc1cccc(CNC(=O)c2ccccc2N)c1 returned Prx2 Sm inh >57 and LT uptake inh -13%.
CCN1C2=C(C(=O)CCC2)C(c2ccc(O)c(Br)c2)C2=C1CCCC2=O was read as Prx2 Sm inh >57 and LT uptake inh inconclusive.
Screening O=C(Nc1ccccc1C(F)(F)F)N1CCC(n2c(=O)[nH]c3ccccc32)CC1 returned Prx2 Sm inh >57 and LT uptake inh 17%.
For CCCCN1C(=O)NC(=O)C2(Cc3c(nc4c(C)cccn4c3=O)N3CCc4ccccc4C32)C1=O (centres undefined) the results were Prx2 Sm inh >57 and LT uptake inh 3%.
Screening CCOC(=O)C1Cc2ccccc2CN1 (centres undefined) returned Prx2 Sm inh >57 and LT uptake inh inconclusive.
`O=C(NCCCN1CCCC1=O)c1csc2ccccc12` gave Prx2 Sm inh >57 and LT uptake inh inconclusive.

12 compounds out of the list, ordered by count of non-hydrogen atoms, high to low:
For CCCCN1C(=O)NC(=O)C2(Cc3c(nc4c(C)cccn4c3=O)N3CCc4ccccc4C32)C1=O (centres undefined) the results were Prx2 Sm inh >57 and LT uptake inh 3%.
For COc1ccc(N=c2scc(-c3ccc(S(=O)(=O)N4CCOCC4)cc3)n2CCCO)cc1 the results were Prx2 Sm inh >57 and LT uptake inh -6%.
Screening Cc1cccc(OCCCC(=O)Nc2ccc(S(=O)(=O)Nc3onc(C)c3C)cc2)c1C returned Prx2 Sm inh >57 and LT uptake inh -19%.
For COc1ccc(NC(=O)c2cnn3c(C(F)(F)F)cc(-c4ccco4)nc23)cc1OC the results were Prx2 Sm inh >57 and LT uptake inh 7%.
CCCCCCC/C=C/C1=CC2(C)CC1(C)C(CCCCCCC)CC2=O (centres undefined) was read as LT uptake inh -11%[8 µM].
CCN1C2=C(C(=O)CCC2)C(c2ccc(O)c(Br)c2)C2=C1CCCC2=O was read as Prx2 Sm inh >57 and LT uptake inh inconclusive.
`O=C1Nc2ccc(S(=O)(=O)N3CCOCC3)c3cccc1c23` gave Prx2 Sm inh >57 and LT uptake inh 17%.
`O=C(NCCCN1CCCC1=O)c1csc2ccccc12` gave Prx2 Sm inh >57 and LT uptake inh inconclusive.
For c1ccc(Nc2nc(-c3cccnc3)cs2)nc1 the results were Prx2 Sm inh >57 and LT uptake inh 5%.
Cc1ccc(NC(=O)CCCC(=O)O)c(Br)c1 was read as Prx2 Sm inh >57 and LT uptake inh 2%.
Screening CCOC(=O)C1Cc2ccccc2CN1 (centres undefined) returned Prx2 Sm inh >57 and LT uptake inh inconclusive.
`CCOc1ccc(-c2nn[nH]n2)cc1` gave Prx2 Sm inh >57 and LT uptake inh -5%.

Continuation.
`CN(C)CC1(c2ccccc2)CCCC1` gave Prx2 Sm inh >57 and LT uptake inh 8%.
`CC1Cc2ccccc2N1Cc1cc(=O)n2ccsc2n1` (centres undefined) gave Prx2 Sm inh >57 and LT uptake inh 12%.
`CCOC(=O)N1CCN(c2nc3ccccc3nc2C(C#N)C(=O)NCCc2ccccc2)CC1` (centres undefined) gave Prx2 Sm inh >57 and LT uptake inh inconclusive.
Screening CCN(CC)CC(=O)c1c[nH]c2ccc(C)cc12 returned Prx2 Sm inh inconclusive and LT uptake inh -9%.
`Cc1ccccc1OCC(O)Cn1c(NCc2ccco2)nc2c1c(=O)[nH]c(=O)n2C` (centres undefined) gave Prx2 Sm inh >57 and LT uptake inh 6%.
Screening CCCCn1nc(NC(=O)c2cccs2)c2cc3cc(OC)ccc3nc21 returned Prx2 Sm inh >57.
For O=C(NCc1ccccn1)C1COc2ccccc2O1 (centres undefined) the results were Prx2 Sm inh >57.
`CC(=O)c1c(C)oc(C)c1CSCc1ccc(C(=O)O)o1` gave LT uptake inh 0%.
COc1ccc(-n2c(SCc3ccc(C#N)cc3)nnc2-c2ccccn2)cc1 was read as Prx2 Sm inh >57.
COCCNC(=O)C(c1cccs1)N(CCc1ccccc1)C(=O)Cn1nnc2ccccc21 (centres undefined) was read as Prx2 Sm inh >57 and LT uptake inh inconclusive.
Screening CCOC(=O)c1c(NC(=O)c2nn(CC)cc2Br)sc(C)c1C returned Prx2 Sm inh >57 and LT uptake inh inconclusive.
O=C(CSc1nnc(-c2c[nH]c3ccccc23)n1-c1ccc(F)cc1)NCc1ccco1 was read as Prx2 Sm inh >57 and LT uptake inh inconclusive.
`COc1ccc(CN2CCOCC2)cc1Br` gave Prx2 Sm inh >57 and LT uptake inh -10%.
For C[C@@H](C(=O)NCc1ccccc1)[C@H]1C[C@]1(C)[C@H](NC(=O)OCc1ccccc1)c1ccccc1 the results were Prx2 Sm inh >57 and LT uptake inh inconclusive.
For CCC(=O)N(Cc1cc2cccc(C)c2[nH]c1=O)c1ccccc1OC the results were Prx2 Sm inh >57 and LT uptake inh -11%.
For CCOC(=O)c1cn(CC(=O)Nc2ccc3c(c2)OCCO3)nn1 the results were Prx2 Sm inh >57 and LT uptake inh 17%.
For O=C(C1CCN(S(=O)(=O)c2cnc[nH]2)CC1)N1CCN(Cc2ccc3c(c2)OCO3)CC1 the results were Prx2 Sm inh >57 and LT uptake inh -1%.
`CC1=Nn2c(nnc2-c2ccc(F)cc2)SC1` gave Prx2 Sm inh >57 and LT uptake inh 6%.
`CCC(CC)C(=O)NCCNC(=O)C(CC)CC` gave Prx2 Sm inh >57 and LT uptake inh -14%.
`N#Cc1c(N2C(=O)C3C4C=CC(C4)C3C2=O)sc2c1CCC2` (centres undefined) gave Prx2 Sm inh >57 and LT uptake inh 11%.
N#C/C(=C\c1ccc(O)c(O)c1)C(N)=S was read as Prx2 Sm inh inconclusive and LT uptake inh 25µM*!.
For Fc1ccccc1N1CCN(CCCNc2ccc3nncn3n2)CC1 the results were Prx2 Sm inh >57 and LT uptake inh -14%.
For CN1C(=O)NC(NC(=O)C2CCCCC2)(C(F)(F)F)C1=O (centres undefined) the results were Prx2 Sm inh >57 and LT uptake inh inconclusive.
Screening Cc1ccc(C2N(c3ccc(F)cc3)C(=O)C3CCCN32)cc1 (centres undefined) returned Prx2 Sm inh >57 and LT uptake inh -1%.
Screening O=C(CSc1nnc(-c2c[nH]c3ccccc23)o1)N1CCCCC1 returned Prx2 Sm inh >57 and LT uptake inh -14%.
For Cc1ccc(S(=O)(=O)Cn2cnnn2)cc1 the results were Prx2 Sm inh >57 and LT uptake inh 2%.
`Nc1cccc(C(=O)Nc2ccc(N)cc2Cl)c1` gave Prx2 Sm inh >57 and LT uptake inh -2%.
`CCCCN(CC)CCNS(=O)(=O)c1ccc2c(c1)oc(=O)n2C` gave Prx2 Sm inh >57 and LT uptake inh 6%.
For CC(C)(C)c1cc(CN2CCOCC2)c(C(=O)O)o1 the results were Prx2 Sm inh >57 and LT uptake inh -2%.
CC(=O)c1cnc(Nc2nc(C)c3ccc(C)cc3n2)nc1C was read as Prx2 Sm inh >57 and LT uptake inh 5%.
CC(=O)CCc1c(C)[nH]c2ccc(NC(C)=O)cc2c1=O was read as LT uptake inh -3%.
CCCn1c(C)nc2c(N3CCC(N(C)C)C3)nc(C)nc21 (centres undefined) was read as LT uptake inh -9%.
CCN(CC)C(=O)Oc1ccccc1NC(C)=O was read as LT uptake inh -11%.
For COc1ccc(C2NC3=C(CCC3)C3(C#N)C4(N=C(N)C23C#N)OCCO4)cc1 (centres undefined) the results were Prx2 Sm inh >57 and LT uptake inh -1%.
For COc1ccc(-c2nnc(SCC(=O)NC(=O)NCc3ccco3)o2)cc1 the results were Prx2 Sm inh >57 and LT uptake inh inconclusive.
Screening CCOC(=O)CN1C(=O)C2(C(C#N)=C(N)Oc3ccccc32)C(C(=O)OC)=C1C (centres undefined) returned Prx2 Sm inh >57 and LT uptake inh 2%.
For CN(CC(=O)Nc1ccc2c(c1)OCCO2)S(=O)(=O)c1cccc2cccnc12 the results were Prx2 Sm inh >57 and LT uptake inh 14%.
For COC(=O)CSc1n[nH]c(-c2ccncc2)n1 the results were Prx2 Sm inh >57.
For CC1(C)CC2CC(C)(CN2C(=O)c2cc(-c3ccccc3O)on2)C1 (centres undefined) the results were Prx2 Sm inh >57 and LT uptake inh -17%.
For COCCn1c(COc2ccc(OC)cc2)nc2ccccc21 the results were Prx2 Sm inh >57 and LT uptake inh 0%.
`COc1ccc(-c2cnc(SCC(=O)Nc3cc(C)on3)n2Cc2ccco2)cc1` gave Prx2 Sm inh >57 and LT uptake inh -15%.
For CS(=O)(=O)N1CCCC(C(=O)NCCc2ccc(Cl)cc2)C1 (centres undefined) the results were Prx2 Sm inh >57 and LT uptake inh -1%.
For Cc1ccc(C(=O)O)cc1[N+](=O)[O-] the results were LT uptake inh inconclusive.
C1CCN(c2nc(N3CCCCC3)nc(N3CCNCC3)n2)CC1 was read as Prx2 Sm inh >57 and LT uptake inh -10%.
For O=C(O)Cn1c(SC2CCCCC2)nc2ccccc21 the results were Prx2 Sm inh >57 and LT uptake inh 6%.
`CC(C)(C)NC(=O)CSc1nnc(-c2ccccn2)n1-c1ccccc1` gave Prx2 Sm inh >57 and LT uptake inh 4%.
CCOC(=O)/C(C#N)=C1/C=C(C)NC(c2ccccc2O)=N1 was read as LT uptake inh inconclusive.
Screening O=S(=O)(/C=C/c1ccccc1)NCCc1ccccn1 returned Prx2 Sm inh >57 and LT uptake inh -1%.
Screening CS(=O)(=O)N(CC(=O)N1CCOCC1)c1ccc2c(c1)OCO2 returned Prx2 Sm inh >57 and LT uptake inh -1%.
`CCOC(=O)c1ccc2c(c1)nc(SCC(=O)c1ccco1)n2CC` gave Prx2 Sm inh >57 and LT uptake inh -2%.
`Cc1cc(C)n2nc(SCN3C(=O)c4ccccc4C3=O)nc2n1` gave Prx2 Sm inh >57 and LT uptake inh 12%.
`CCOC(=O)CSc1nc2cc(C)ccc2cc1C#N` gave Prx2 Sm inh >57 and LT uptake inh -17%.
`Nn1cnnc1` gave LT uptake inh -5%.
Screening COc1ccc(NCc2ccc3c(c2)OCO3)cc1Cl returned Prx2 Sm inh >57.
`CN(C)c1oc(-c2ccccc2Cl)nc1S(=O)(=O)c1ccccc1` gave Prx2 Sm inh >57 and LT uptake inh -22%.
`CNC(=O)c1[nH]cnc1C(=O)Nc1cccc(OC)c1` gave Prx2 Sm inh >57 and LT uptake inh 12%.
